Source: PubChem BioAssay (Johns Hopkins Ion Channel Center)
KCNQ2 block – KCNQ2 potassium channel inhibitors, primary screen, cell-based, CHO-K1, FluxOR thallium flux, B-score (AID 2156). 20 min; stronger effect = lower value; only compounds with negative scores are shown here; some inactives read as strong as hits. 310,000 compounds, 1.1% hits. B-score at 10 µM;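 active = fluorescence ratio B-score at most minus 3 library SDs, with starting brightness B-score within 2 library SDs, cut at about -5.5 in these data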
Target sequence (O88943 whole entry, looked up): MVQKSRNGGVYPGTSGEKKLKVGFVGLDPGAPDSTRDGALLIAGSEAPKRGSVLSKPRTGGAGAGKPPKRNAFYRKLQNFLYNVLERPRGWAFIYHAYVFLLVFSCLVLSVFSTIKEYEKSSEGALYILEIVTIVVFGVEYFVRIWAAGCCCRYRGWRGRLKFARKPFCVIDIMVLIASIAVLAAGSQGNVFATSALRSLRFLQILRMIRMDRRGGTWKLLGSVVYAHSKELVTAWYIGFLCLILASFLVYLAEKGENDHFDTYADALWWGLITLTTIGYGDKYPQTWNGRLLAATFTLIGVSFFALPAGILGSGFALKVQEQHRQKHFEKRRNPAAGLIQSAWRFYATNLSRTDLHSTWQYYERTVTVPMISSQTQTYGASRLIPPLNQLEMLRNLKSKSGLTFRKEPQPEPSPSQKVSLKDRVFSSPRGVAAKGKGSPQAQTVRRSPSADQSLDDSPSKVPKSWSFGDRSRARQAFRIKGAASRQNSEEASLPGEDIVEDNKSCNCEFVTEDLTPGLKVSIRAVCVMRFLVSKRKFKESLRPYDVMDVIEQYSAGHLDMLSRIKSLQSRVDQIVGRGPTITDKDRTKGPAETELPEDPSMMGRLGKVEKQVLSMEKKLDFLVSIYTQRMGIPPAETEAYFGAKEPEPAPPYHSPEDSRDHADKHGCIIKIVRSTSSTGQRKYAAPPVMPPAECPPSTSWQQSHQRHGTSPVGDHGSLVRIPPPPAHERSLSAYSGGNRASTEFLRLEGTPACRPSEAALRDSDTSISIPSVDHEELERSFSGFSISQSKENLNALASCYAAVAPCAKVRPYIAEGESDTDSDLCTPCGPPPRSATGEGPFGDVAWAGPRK
KCNQ2 block baseline – second read-out of KCNQ2 block, no call of its own (marks repeat the call); B-score; measured here: initial fluorescence intensity artifact check;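 brightness before thallium and not channel activity; 0 = typical well and far values either way flag optical interference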
The depositor's hits bear a star; i = inactive. Not all compounds are listed; count on the stated rates, not on these rows.

SMILES	KCNQ2 block	KCNQ2 block baseline
COc1ccccc1N1CCN(C(=O)c2cc3c(s2)CCC3)CC1	i	-1
Oc1ccc(Nc2nc(-c3ccc4ccccc4c3)cs2)cc1	i	2
CC(=O)Nc1ccc(NS(=O)(=O)c2ccc(Cl)s2)cc1	i	-0.12
Oc1ccccc1Nc1ncnc2c1oc1ccccc12	i	0.02
CCn1cc(/C=C(\NC(=O)c2ccccc2)C(=O)N2CCOCC2)c2ccccc21	i	-2.5
O=C(CN(C(=O)Cn1nnc(-c2ccccc2F)n1)c1cnc2ccccc2c1)NCC1CCCO1 (configuration not stated)	i	-1.3
CN(c1ccccc1C(=O)O)S(=O)(=O)c1ccc2[nH]c(=O)[nH]c2c1	i	1.4
CC(C)N1CCC(N2CCN(CCCc3ccccc3)CC2CCO)CC1 (configuration not stated)	i	2.8
Cn1c(=O)[nH]c(=O)c2c1nc(N/N=C/C(Br)=C/c1ccccc1)n2CCO	i	0.77
N#CC1=C(Nc2ccccc2Cl)SC(c2ccccc2O)NC1=O (configuration not stated)	i	-0.95
CCOC(=O)C1(Cc2cccc(F)c2)CCN(C(=O)c2ccoc2C)CC1	i	1.4
O=C(NCC1CCCO1)C1CCN(c2ccc(S(=O)(=O)N3CCCC3)cc2)CC1 (configuration not stated)	i	0.8
Cn1c(=O)oc2cc(S(=O)(=O)N3CCc4ccccc43)ccc21	i	1.6
CN(C)c1cccc(N=C2C=C(N3CCOCC3)CC(C)(C)C2)c1	i	2.4
CCOC(=O)c1cnc2c(c(C)nn2C)c1Oc1ccccc1F	i	2.8
COc1cc(C2Nc3ccccc3C(=O)N2c2ccc3c(c2)OCCO3)ccc1OCC(C)C (configuration not stated)	i	-0.42
O=C(O)c1ccc(-c2ccc(/C=N/Nc3ccc([N+](=O)[O-])cc3)o2)cc1	i	5.9
CN(c1ccccc1)S(=O)(=O)c1cccc(NC(=O)CN2CCc3ccccc3C2)c1	i	0.22
CNC(=O)CCN(Cc1ccco1)S(=O)(=O)c1ccc(OC)c(OC)c1	i	0.23
N#C/C(=C/c1ccc(Br)o1)C(N)=S	i	-2
Cc1ccc2oc(=O)n(CCOc3ccccc3C)c2c1	i	-1.7
Cc1ccc(CNC(=O)CCSCc2cccc(F)c2)cc1	i	3.5
CCOc1ncccc1C(=O)OCC(=O)Nc1cc(S(=O)(=O)N(CC)CC)ccc1C	i	0.88
CCOC(=O)N1CCN(C(=O)C(NC(=O)c2ccco2)C(C)C)CC1 (configuration not stated)	i	-0.18
CCOC(=O)c1cc(C)[nH]c(=O)c1C#N	i	2.6

Continued, starting with the last four of the part before.
SMILES	KCNQ2 block	KCNQ2 block baseline
Cc1ccc(CNC(=O)CCSCc2cccc(F)c2)cc1	i	3.5
CCOc1ncccc1C(=O)OCC(=O)Nc1cc(S(=O)(=O)N(CC)CC)ccc1C	i	0.88
CCOC(=O)N1CCN(C(=O)C(NC(=O)c2ccco2)C(C)C)CC1 (configuration not stated)	i	-0.18
CCOC(=O)c1cc(C)[nH]c(=O)c1C#N	i	2.6
Cc1c(C(=O)Nc2nc3ccccc3[nH]2)cccc1[N+](=O)[O-]	i	-0.12
COc1ccc(C(=O)/C=C/C(=O)N(Cc2ccc(F)cc2)C(C(=O)NC2CCCCC2)c2ccncc2)c(O)c1 (configuration not stated)	i	1.5
Cc1ccc(CN2CC(C(=O)NCCCSc3ccccc3)CC2=O)cc1 (configuration not stated)	i	-0.76
CCCCCc1nnc(NS(C)(=O)=O)s1	i	0.03
COc1ccc(CCCNC(=O)C2CCC(=O)N(Cc3ccccc3F)C2)cc1 (configuration not stated)	i	3.2
CCOC(=O)C1(CCOC)CCN(Cc2cccc(OCc3ccccc3)c2)CC1	i	2.2
Cn1c(=O)c2c(nc(N3CCCCC3)n2CCCNC2=NCCCC2)n(C)c1=O	i	-0.44
Cc1cc(Nc2nc3ccccc3nc2Cl)n(-c2ccccc2C)n1	i	0.11
CCCCC1(C(=O)OCC)CC(CN2CCOCC2)OC1=O (configuration not stated)	i	0.21
COc1ccc(C(=O)CSc2nc3ccc([N+](=O)[O-])cc3[nH]2)cc1	i	1.7
O=C1CC(c2ccccc2Cl)Cc2c1cnn2-c1nc2ccccc2s1 (configuration not stated)	i	-0.84
CC(C)(C)NC(=O)C(c1ccccc1)N(Cc1cccs1)C(=O)c1csnn1 (configuration not stated)	i	1.1
Cc1ccc(CSc2nc3ccccc3c(=O)n2Cc2ccco2)cc1	i	-0.34
Cc1ccc(OCCOc2ccc(Br)cc2)c([N+](=O)[O-])n1	i	0.24
O=C1CN(C(=O)c2ccccc2C(=O)O)c2ccccc2N1	i	0.58
CCc1cc(=O)oc2c(C)c(OCC(=O)N3CCC[C@@H]3C(=O)O)ccc12	i	1.9
CC(OC(=O)c1ccc(Cl)c(S(=O)(=O)Nc2ccc(F)cc2)c1)C(=O)NC(N)=O (configuration not stated)	i	-0.03
O=C(c1cc(F)ccc1F)C1CCCN(C(=O)c2cccs2)C1 (configuration not stated)	i	-0.97
CCn1cc(C(=O)NCc2ccccc2Cl)cn1	i	0.52
c1n[nH]c(NC2=NCCC2)n1	i	2.8
CCN(C(=O)c1ccc(Cl)cc1[N+](=O)[O-])c1ccccc1C	i	-0.54
COC(=O)CSc1nc(SCc2ccccc2Cl)nc2c1CCCC2	i	-1.6
O=C(NCCNC(=O)c1cc(Cl)ccc1Cl)c1ccccn1	i	3.5
O=C(CNC(=O)N1CC(=O)Nc2ccccc21)NCCc1cccc(F)c1	i	-0.3
CC(C)(C)c1ccc(-c2c(C(=O)O)c(C(=O)O)c3n2CSC3)cc1	i	0.17
SMILES	KCNQ2 block	KCNQ2 block baseline
COc1ccc(CNC(=O)c2cccc(S(=O)(=O)N3CCN(C)CC3)c2)cc1	i	1.7
COc1ccc(CNC(=O)NCc2ccc(OC)c(OC)c2)cc1OC	i	0.95
C=CCSc1nc2sc(C)c(C)c2c(=O)n1CC=C	i	0.43
CN(c1ccc(C(=O)Nc2cccc(O)c2)cc1)S(=O)(=O)c1ccccc1	i	1.1
CN(c1cccc(NC(=O)COc2ccccc2)c1)S(C)(=O)=O	i	0.46
COCCCNC(=O)c1cccn2c(=O)c3cc4ccccc4cc3nc12	i	1.2
COc1ccc(OCC(O)CN2CCN(c3ccc(OC)cc3)CC2)cc1 (configuration not stated)	i	1.4
COc1ccc(S(=O)(=O)n2ccc(-c3ccc(OCCN(C)c4ccccn4)cc3)n2)cc1	i	-0.07
COC(=O)CN1C(=O)C2(OCCCO2)c2cc(Br)ccc21	i	-1.1
Cc1ccc2nc(CSc3nnc(Nc4ccccc4F)s3)cc(=O)n2c1	i	0.46
Cc1ccc2c(CC(=O)NC3CCCc4ccccc43)coc2c1 (configuration not stated)	i	1.6
Cc1noc(NS(=O)(=O)c2ccc(N/C=C\C(=O)c3cccs3)cc2)c1C	i	-0.3
CCCCCOc1ccc(NC(=O)CSc2cccc3cccnc23)cc1	i	0.45
COC(=O)NC1c2ccccc2Oc2ccccc21	i	-0.03
CNc1nc(N)c([N+](=O)[O-])c(Nc2cccc(F)c2)n1	i	-0.05
c1ccc(Nc2ccccc2Nc2ccccn2)nc1	i	-0.14
COCCCNC(=O)CN1C(=O)/C(=C\c2ccc(C)cc2)Sc2ccccc21	i	-0.6
COc1ccc2nc(SCC(=O)NCC(F)(F)F)[nH]c2c1	i	-0.97
O=C(c1ccc(Sc2ccccc2)c([N+](=O)[O-])c1)N1CCOCC1	i	-0.52
O=C(Nc1ccc(NC(=O)c2cccs2)cc1)c1cccs1	i	0.07
CCOC(=O)c1c(-c2ccccc2)cn2ccccc12	i	0.59
COCCNC(=O)/C(C#N)=C/c1ccc(OCc2ccc(F)cc2)cc1	i	0.6
CN1C(=O)C2(C(C#N)=C(N)Oc3c2oc(CO)cc3=O)c2ccccc21 (configuration not stated)	i	0.67
N#CC(=C=[N-])c1nc2ccccc2nc1-[n+]1cccc(NC(=O)c2ccccc2)c1	i	0.93
O=C1NC(NS(=O)(=O)c2ccccc2)(C(F)(F)F)C(=O)N1c1cccc(Cl)c1 (configuration not stated)	i	1.3
SMILES	KCNQ2 block	KCNQ2 block baseline
NNC(=O)c1oc2nc(-c3cccs3)cc(-c3ccco3)c2c1N	i	-0.54
Cc1cc(C)nc(NC(N)=S)n1	i	-0.41
COc1ccc(C/C(N)=N/OC(=O)C(c2ccccc2)c2ccccc2)cc1OC	i	1.1
C=C(C)CNC(=O)CCc1nnc(Cc2cccc(C(F)(F)F)c2)o1	i	1.2
Cc1nc2ccc(NC(=O)N3CCSCC3)cc2nc1C	i	-0.04
CCOC(=O)/C=C/C(=O)N1CCN(C(=O)/C=C/C(=O)OCC)CC1	i	0.33
CC(=O)Nc1ccc(S(=O)(=O)N(C)CC(=O)NC2CCCC(C)C2C)cc1 (configuration not stated)	i	0.1
COc1ccccc1C(CCNCc1ccc(N(C)C)cc1)c1ccc(OC(C)C)cc1 (configuration not stated)	i	0.06
O=C(O)c1ccc(Cl)c(NC(=O)C2CCCN2S(=O)(=O)c2cccc3nsnc23)c1 (configuration not stated)	i	-1.9
O=C(Nc1ccccc1)C(c1ccccc1)c1ccccc1	i	0.18
COc1cccc(C(=O)N2CCN=C2SC)c1	i	-0.07
CC(NC(=O)C(=O)NCCC1=CCCCC1)c1ccccc1 (configuration not stated)	i	1
O=C(C1=C[C@@H](c2ccc(C(F)(F)F)cc2)C[C@@H](OCc2ccc(CO)cc2)O1)N1CCN(Cc2ccccc2)CC1	i	1
O=S(=O)(Nc1ccc2nc(-c3ccco3)[nH]c2c1)c1ccccc1	i	1.6
Cc1csc(NC(=O)CSc2ncnc3c2cnn3-c2ccccc2Cl)n1	i	0.36
Cc1onc(-c2c(Cl)cccc2Cl)c1NC(=O)NN(C)C	i	0.05
CCSC1=C(C#N)C(c2ccccc2C)CC(=O)N1 (configuration not stated)	i	0.16
Cc1cccc(C)c1NC(=O)C(c1cccs1)N(Cc1ccco1)C(=O)Cn1nnc2ccccc21 (configuration not stated)	i	0.16
C=CC(=O)N1C/C=C\C(c2ccc(OC)cc2)N(Cc2ccc(F)cc2)C(=O)C1 (configuration not stated)	i	-0.02
Cc1onc(-c2ccccc2Cl)c1C(=O)NC(=S)Nc1ccc(C(C)C)cc1	i	-0.98
Cn1ccnc1SCC(=O)Nc1ccc2ccccc2c1	i	0.38
O=C(CN1CCSCC1)N/N=C/c1cccc(Cl)c1	i	2
Cc1cc(OCCCn2ccnc2)cc(C)c1Cl	i	0.47
COc1ccc(NC(=O)Nc2ccc(CC(=O)O)cc2)cc1	i	0.35
Clc1ccc(-c2ccc(/C=N/Nc3nncc(-c4ccccc4)n3)o2)cc1	i	0.22
SMILES	KCNQ2 block	KCNQ2 block baseline
COc1ccccc1N(C(=O)CNS(=O)(=O)c1ccccc1)C(C(=O)NCc1ccco1)C(C)C (configuration not stated)	i	1.1
CC1=C(C(N)=O)C(c2cccnc2)n2nc(SCc3ccccc3Cl)nc2N1 (configuration not stated)	i	0.02
Cc1cc(C)n2nc(C(=O)N/N=C/c3ccc(O)cc3)nc2n1	i	-1.4
O=C(O)COCC(=O)N1CCCN(c2nccc(C(F)(F)F)n2)CC1	i	1.6
Cc1onc(-c2ccccc2)c1C(=O)OCCOc1cccc(Cl)c1	i	-0.85
CCOC(=O)c1c(C)n(-c2ccc(C)cc2)c2ccc(OCC(O)CNCC3CCCO3)cc12 (configuration not stated)	-6.3*	-0.53*
CCOC(=O)CSC1=NN2CCS(=O)(=O)N=C2S1	i	-1.2
CCOc1cccc(NC(=O)/C(C#N)=C/c2cccnc2)c1	i	-0.02
COC(=O)CN(C)C(=O)c1cccc(OC2CCN(S(=O)(=O)N(C)C)CC2)c1	i	-1.5
COc1ccc(CCN2C(=O)CC(N3CCOCC3)C2=O)cc1 (configuration not stated)	i	-0.51
CCOC(=O)N1CCN(C(=O)CN(c2cccc(C(F)(F)F)c2)S(C)(=O)=O)CC1	i	2
CCC(=O)c1cc(-c2nc3ccccc3n2C)n(C)c1	i	-2
Cc1ccccc1Nc1ncnc2c1cnn2-c1ccccc1	i	0.88
CCCCn1c(N)c(N(CCOC)C(=O)CSCc2c(C)noc2C)c(=O)[nH]c1=O	i	1.3
Cc1cc(CNC(=S)Nc2ccc(Br)cc2Cl)nn1C	i	0.8
COc1cc(C#N)c(NC(=S)N2CCOCC2)cc1OC	i	0.07
COCCN1C(=O)C(CC(=O)Nc2ccc(C(C)=O)cc2)SC1=Nc1ccccc1 (configuration not stated)	i	-1.1
O=C(NCCOc1ccccc1F)C1CCC(=O)N(CCc2cccc(F)c2)C1 (configuration not stated)	i	1.6
OC(CNC1CCCC1)COc1ccc(Cl)cc1 (configuration not stated)	i	-0.01
Cc1cc(C)n(-c2nc3c(c(=O)[nH]c(=O)n3C)n2Cc2cccc(Br)c2)n1	i	0.31
COc1ccc(/C=N/NC(=O)c2sc3nc(C)cc(C)c3c2N)cc1	i	-1.9
COc1cccc(C(=O)Nc2ncc3c(n2)CC(c2ccc(OC)cc2OC)CC3=O)c1 (configuration not stated)	i	0.05

An excerpt from above in order of molar mass, ascending.
SMILES	KCNQ2 block	KCNQ2 block baseline
COc1ccc(/C=N/NC(=O)c2sc3nc(C)cc(C)c3c2N)cc1	i	-1.9
Cc1cc(CNC(=S)Nc2ccc(Br)cc2Cl)nn1C	i	0.8
O=C(NCCOc1ccccc1F)C1CCC(=O)N(CCc2cccc(F)c2)C1 (configuration not stated)	i	1.6
CC1=C(C(N)=O)C(c2cccnc2)n2nc(SCc3ccccc3Cl)nc2N1 (configuration not stated)	i	0.02
COc1cccc(C(=O)Nc2ncc3c(n2)CC(c2ccc(OC)cc2OC)CC3=O)c1 (configuration not stated)	i	0.05
CCOC(=O)N1CCN(C(=O)CN(c2cccc(C(F)(F)F)c2)S(C)(=O)=O)CC1	i	2
